# Screening data as filed in PubChem.
# Rango complex inh = qHTS Assay for Inhibitors of Rango (Ran-regulated importin-beta cargo) - Importin beta complex formation; Potency, µM (series often up to 92.2 µM), without a hit: at the highest dose inhibition of complex formation; Importin subunit beta-1 (Homo sapiens), Q14974; 0.031% of 340,000 active; Rango CFP/YFP FRET sensor + importin beta, 45 min; active = rising FRET ratio curve, often small or poorly fitted; inconclusive = mostly compound fluorescence or quenching in the first reads; inactive = flat curves in all reads;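 further: potency means the concentration at half of the fitted maximal effect; 0% = DMSO wells and 100% = buffer wells lacking importin beta; nearly all actives have a fitted effect of over 15% in size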
# Target sequence (Q14974 whole entry, looked up): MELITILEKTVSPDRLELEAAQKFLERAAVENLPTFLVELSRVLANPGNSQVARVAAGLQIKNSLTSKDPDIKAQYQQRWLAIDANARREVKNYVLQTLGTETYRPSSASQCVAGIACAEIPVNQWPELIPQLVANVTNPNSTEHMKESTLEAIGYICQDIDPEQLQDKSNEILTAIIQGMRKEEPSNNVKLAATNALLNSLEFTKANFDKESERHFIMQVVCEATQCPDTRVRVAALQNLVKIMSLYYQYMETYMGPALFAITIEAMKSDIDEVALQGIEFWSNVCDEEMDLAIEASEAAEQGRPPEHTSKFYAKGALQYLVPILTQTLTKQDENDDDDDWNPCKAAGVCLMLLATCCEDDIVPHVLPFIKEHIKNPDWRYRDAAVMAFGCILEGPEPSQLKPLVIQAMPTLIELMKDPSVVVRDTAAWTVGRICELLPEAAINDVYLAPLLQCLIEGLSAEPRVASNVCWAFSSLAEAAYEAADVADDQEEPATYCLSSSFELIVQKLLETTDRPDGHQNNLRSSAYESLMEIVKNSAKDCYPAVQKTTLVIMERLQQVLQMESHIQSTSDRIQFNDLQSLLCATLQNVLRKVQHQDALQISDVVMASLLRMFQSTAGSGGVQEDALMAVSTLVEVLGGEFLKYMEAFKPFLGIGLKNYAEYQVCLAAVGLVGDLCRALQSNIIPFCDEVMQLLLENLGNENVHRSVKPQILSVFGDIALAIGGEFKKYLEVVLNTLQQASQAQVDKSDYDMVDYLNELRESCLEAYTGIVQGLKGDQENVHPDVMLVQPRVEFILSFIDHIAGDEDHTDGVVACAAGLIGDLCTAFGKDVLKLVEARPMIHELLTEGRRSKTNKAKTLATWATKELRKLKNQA
#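 Inhibition scored from the CFP 486 nm/YFP 530 nm FRET ratio 45 min after adding 0.125 microM importin beta to 50 nM Rango biosensor preincubated 5 min with compound (room temperature, PBS with DTT, Tween-20, BSA). No-importin wells as positive control.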
# miR-21 FLuc = qHTS Assay for Modulators of miRNAs and/orActivators of miR-21. HeLa miR-21 FLuc reporter, luciferase, 48 h. Potency, µM (top dose mostly 38.3 µM), for the others: top-dose reporter change, positive = more light. 340,000 tested, under 10 active. AID 2288, 2010; active = well fitted rising curve with a large enough effect; inconclusive = small, poorly fitted or top-dose-only effect; inactive = no such curve, though single readings can be large or run the other way;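 further: % of control where 0% means no effect; miR-21 action dims this reporter so a rising signal means less miR-21 action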
#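 Using DMEM plus 10% FBS, HeLa miR-21-FLuc cells are incubated with test compounds (final up to about 40uM) for 48 hours; firefly luciferase signal is then imaged following reagent-mediated lysis.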
# Rango dissoc inh = qHTS Assay for Inhibitors of RanGTP induced Rango (Ran-regulated importin-beta cargo) - Importin beta complex dissociation; Snurportin-1 (Homo sapiens) + GTP-binding nuclear protein Ran (Homo sapiens) + Importin …; Biochemical FRET Rango-importin beta, RanGTP-induced dissociation; Potency, µM (doses to about 46.1 µM), for the others: at the top dose activity change, negative = inhibition; 0.071% of 340,000 active; AID 540253, 2011; active means falling FRET ratio curve, often poorly fitted, with flat reads before Ran was added; inconclusive means other falling curves, or compound fluorescence or quenching; inactive means flat or rising ratio curve;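 further: potency means the concentration at half of the fitted maximal effect; % of control where 0% means no effect; nearly all actives have a fitted effect of over 45% in size; -100% = wells without RanGTP and RCC1; the record marks most hits as doubtful in a second field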
#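 Compounds preincubate 5 min with complex of recombinant Rango and importin beta in PBS with 1 mM DTT. Ran (0.6 uM) loaded with 2 mM GTP plus 0.2 uM RCC1 starts dissociation; FRET is recorded 45 min later.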
# GLA inh pH 4.5 = qHTS Assay for Inhibitors of Human alpha-Galactosidase at pH 4.5. activity change, negative = inhibition, % at 105 µM. Alpha-galactosidase A (Homo sapiens), P06280. 230,000 tested, under 10 active. purified enzyme, 4-MU-alpha-Gal fluorescence, pH 4.5; inconclusive = small, poorly fitted or top-dose-only inhibition, or a rising curve; inactive = flat fitted curve, though single readings scatter; no compound was filed as active;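 further: 0% = full activity with enzyme and -100% = basal without enzyme; dose as in the result columns while the protocol names 77 µM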
# * marks the source's active call; other numbers are inactive results; ? = inconclusive; · = not tested or not shown; & = joins results of further samples. An excerpt. The share of hits here may be higher or lower than overall.
mol	Rango complex inh	miR-21 FLuc	GLA inh pH 4.5	Rango dissoc inh
CCOc1ccc(N(CC(=O)N2CCCC2)S(=O)(=O)c2c(C)noc2C)cc1	-7.3%	-1%	-7	23%
COc1cccc(/C(O)=C2/C(=O)C(=O)N(CCCN3CCOCC3)C2c2ccncc2)c1 (stereo not drawn)	-3.3%	-5%	1	-11%
COc1ccc(C(C)=O)cc1CN1CCCCC1	3.8%	-2%	3	6%
O=C(C1CCN(S(=O)(=O)c2ccc(-n3cnnn3)cc2)CC1)N1CCCCC1	-2.0%	7%	·	-1%
Cn1c(SCC(=O)c2ccccc2)nnc1C1COc2ccccc2O1 (stereo not drawn)	-2.9%	-12%	-8	-9%
O=C(c1cccnc1NCc1ccccc1)N1CCOCC1	-0.4%	-3%	4	-9%
Cc1nc(N2CCCCC2)c2sc(=S)n(C)c2n1	-0.1%	-2%	6	5%
Cc1ccc(NCc2ccc([N+](=O)[O-])s2)cc1	4.5%	-13%	·	-2%
O=C(C1CCCN(S(=O)(=O)c2cnc[nH]2)C1)N1CCN(c2ccc(Cl)cc2)CC1 (stereo not drawn)	-2.3%	0%	5	7%
Cc1nc(=O)c(-c2ccccc2)c(C)n1-c1ccc(Br)cc1	2.7%	-3%	9	-7%
O=C(N/C(=C\c1ccc([N+](=O)[O-])cc1)C(=O)N1CCCCC1)c1ccccc1	4.0%	-1%	-7	12%
CCOC(=O)C1(Cc2ccccc2C)CCCN(S(C)(=O)=O)C1 (stereo not drawn)	-0.7%	4%	·	1%
COc1cccc(N2CCN(C(=O)C3C4C=CC5(CN(Cc6ccccc6Cl)C(=O)C35)O4)CC2)c1 (stereo not drawn)	0.1%	-6%	0	-8%
Cc1c(C(=O)N2CCN(c3ccccc3)CC2)sc2nc3n(c(=O)c12)CCC3	0.8%	0%&19%	·	17%
COc1cccc(NC(=O)N(CCN(C)C)C(C)c2cccnc2)c1 (stereo not drawn)	-1.8%	-8%	-2	2%
CC(=O)c1cccc(NC(=O)C2C3CCC(C3)C2C(=O)O)c1 (stereo not drawn)	-3.2%	-1%	·	1%
O=C(N/N=C/c1ccccn1)c1ccco1	0.2%	-25%	-3	-6%
CCCN1CCC(NC(=O)Nc2cccc3ccccc23)CC1	3.2%	-1%	-20	-10%
Cc1c(C(=O)N2CCN(c3ccc(F)cc3)CC2)sc2nc3n(c(=O)c12)CCC3	4.0%	-1%&0%	·	4%
N#CC1=C(N)NC(SCC(=O)c2ccc(Br)cc2)=C(C#N)C12CCCCC2	?	29%	-9	0%
COc1ccc(C(=O)NNC(=O)CN2CCC(n3nnc4cc(C)ccc43)CC2)cc1	?	-3%	4	0%
O=C(O)c1ccc(CN2C(=O)c3ccc(C(=O)O)cc3C2=O)cc1	4.2%	-4%	·	2%
CC(C)CCn1nnnc1CN1CCN(c2ccc(F)cc2)CC1	1.9%	-6%	0	-8%
Cc1ccccc1C(=O)NNC(=O)/C=C/c1ccccc1	-3.5%	-5%	-4	-8%
CCOC(=O)CNC(=O)N1CCCC(C(=O)c2cccc(Cl)c2)C1 (stereo not drawn)	-2.3%	-2%	0	-10%
CCc1ccc2nc(N(CCCN(C)C)C(=O)c3ccc(S(=O)(=O)N(C)C4CCCCC4)cc3)sc2c1	7.9%	6%	·	15%
COc1ccc([C@H]2CC(=O)C=C(c3ccccc3-c3ccccc3)C2)cc1	-1.1%	·	·	1%
Cc1nn(CC(=O)NC(=O)NC2CCCC(C)C2C)c(=O)c(C#N)c1C (stereo not drawn)	-1.3%	·	·	3%
CC1CN(c2cnn(C(C)C)c(=O)c2Cl)CC(C)O1 (stereo not drawn)	-2.8%	0%	·	1%
O=S1(=O)N=C(N(CCO)/N=C/C=C/c2ccccc2)c2ccccc21	?	-10%	-9	-3%
CN(C)CCCN(C(=O)COc1ccccc1)c1nc2ccc(Cl)cc2s1	-0.2%	-8%	-8	8%
COc1ccc(N2CCN(C3CCCN(Cc4ccc(F)cc4Cl)C3)CC2)cc1 (stereo not drawn)	-1.6%	2%	·	2%
Cc1cc(/C=C2/SC(=S)N(c3cccc(Cl)c3)C2=O)c(C)n1-c1cccnc1	?	·	·	?
Cc1nc2c(-c3ccc(F)cc3)c(C)nn2c(N2CCOCC2)c1C	-3.0%	-12%	1	-3%
Cc1nn2c(NC(C)C)c3c(nc2c1-c1ccccc1)CCC3	0.4%	8%	6	12%
Cc1ccc(-c2cc(C(=O)O)n(-c3ccc(S(N)(=O)=O)cc3)n2)cc1	-1.2%	1%	4	-7%
CC(C)c1nnc(NC(=O)C2CCCN2C(=O)Nc2cccc(Cl)c2)s1 (stereo not drawn)	0.7%	3%	·	-13%
O=C(Nc1cn(-c2ccccc2)nc1-c1ccccc1)c1ccccc1	-2.1%	-7%	-10	23%
CCCN(Cc1cc2cc(OC)ccc2[nH]c1=O)C(=O)c1ccncc1	-1.0%	21%	4	1%
CC1CCN(S(=O)(=O)c2ccc(NC(=O)CN3CCCC3)cc2)CC1	-0.6%	-1%	·	-5%
CC(C)OC(=O)C1C(=O)CC(C)(O)C(C(=O)OC(C)C)C1c1cccnc1 (stereo not drawn)	-3.1%	-4%	-3	-12%
C=CCOC(=O)C1=C[C@H](c2cn(C(C)=O)c3ccccc23)[C@@H](CCCO)[C@H](OCC)O1	-1.9%	2%	3	4%
COc1ccc(/C=N/OC/C(O)=C(\C#N)c2nc3ccccc3[nH]2)cc1OC	-3.7%	-4%	8	-6%
CN1CCN(CCCNC(=S)Nc2ccc(F)c(Cl)c2)CC1	0.0%	4%	7	11%
COc1ccc(Cl)cc1NC(=O)COC(=O)c1cc(NS(=O)(=O)c2cccs2)ccc1O	-3.8%	7%	0	2%
CN(C)c1nc(SCc2ccccc2Cl)nc2c1CCCC2	2.9%	-10%	-14	-13%
Cc1ccc(O)c(C2=Nc3ccccc3N=C(c3ccco3)C2)c1	?	-3%	-2	6%
CN1CCN(C2CC(=O)N(Cc3ccc(N4CCCC4=O)cc3)C2=O)CC1 (stereo not drawn)	-2.8%	-1%	9	7%
O=C(c1cc(Cl)nc2ccccc12)N(Cc1nnc(-c2ccccc2Cl)o1)C1CC1	-0.3%	·	·	4%
CC(=O)CCc1oc2ccc([N+](=O)[O-])cc2c1-c1ccc(C)o1	1.0%	1%	0	-3%
COc1ccc2c(c1)[C@H]1[C@H](CO2)[C@H](c2ccccc2)[C@]2(C)C(=O)Nc3cc(Cl)ccc3C(=O)N12	?	·	·	19%
COc1cc([N+](=O)[O-])cc(/C=N/NC(=O)C(O)(c2ccccc2)c2ccccc2)c1O	-0.3%	12%	·	1%
N#CC1=C(SCc2ccccc2)NC(=O)C(C#N)C12CCCC2 (stereo not drawn)	0.0%	0%	-4	1%
CCN1CCN(c2nc(N)c([N+](=O)[O-])c(Nc3cccc(C)c3)n2)CC1	5.9%	-11%	-9	3%
CCN(C(=O)CSc1ncn[nH]1)c1cccc2ccccc12	1.4%	-8%	8	7%
Cn1cc(Cl)c(C(=O)NNC(=S)Nc2cccc(Cl)c2)n1	-0.4%	-47%	0	-1%

# (more compounds)
mol	Rango complex inh	miR-21 FLuc	GLA inh pH 4.5	Rango dissoc inh
C#CCn1cc(/C=N/NC(=O)c2cc3ccccc3o2)c2ccccc21	?	-5%	-14	-4%
CCCCC(=O)Nc1ccc2c(c1)nc1n2CCN(CCOC)C1	?	-10%	8	-25%
Cc1ccc2ncc(S(=O)(=O)c3ccccc3)c(N3CCCCC3C)c2c1 (stereo not drawn)	0.6%	?	·	3%
O=C1CCC(C(=O)Nc2cccc(S(=O)(=O)N3CCOCC3)c2)N1 (stereo not drawn)	2.0%	0%	-4	9%
COc1ccc(C(=O)N2CCN(c3ccc([N+](=O)[O-])c(NCCc4ccc(OC)c(OC)c4)c3)CC2)cc1	-1.4%	19%	?	24%
O=C(CC(=O)Nc1ccc(F)cc1)Nc1ccc(F)cc1	-0.9%	-6%	·	1%
Cc1ccc(O)c(NC(=O)c2ccccc2-c2ccccc2C(=O)O)c1	-2.6%	0%	·	-10%
CN(C)c1ccc(N=Cc2nc(-c3ccccc3)oc2OC(=O)c2cccc(Cl)c2)cc1	?	-59%	-3	-7%

# In another format: results already given
O=C(CC(=O)Nc1ccc(F)cc1)Nc1ccc(F)cc1
  Rango complex inh = -0.9%; miR-21 FLuc = -6%; GLA inh pH 4.5 = ·; Rango dissoc inh = 1%

Cc1ccc(O)c(NC(=O)c2ccccc2-c2ccccc2C(=O)O)c1
  Rango complex inh = -2.6%; miR-21 FLuc = 0%; GLA inh pH 4.5 = ·; Rango dissoc inh = -10%

CN(C)c1ccc(N=Cc2nc(-c3ccccc3)oc2OC(=O)c2cccc(Cl)c2)cc1
  Rango complex inh = ?; miR-21 FLuc = -59%; GLA inh pH 4.5 = -3; Rango dissoc inh = -7%

# New compounds follow.
mol	Rango complex inh	miR-21 FLuc	GLA inh pH 4.5	Rango dissoc inh
Cc1onc(-c2ccccc2Cl)c1C(=O)N1CCCCCC1	-4.7%	-2%	·	33%
COc1ccc(OC)c(NC(=O)Nc2cnccn2)c1	2.0%	-19%	·	1%
O=C(c1nnc(-c2ccccc2)o1)C1CC1	0.4%	-15%	-2	-6%
COc1ccc(CC(=O)N(C)CC(=O)Nc2ccccc2C(F)(F)F)cc1S(=O)(=O)N1CCOCC1	?	·	·	-10%
Cc1ccc2cc(CN(C(=O)c3cccs3)c3ccccc3)c(=O)[nH]c2c1	-1.8%	-6%	1	-3%
O=C(COC(=O)CCC1CCCC1)NCc1ccc(Cl)cc1	0.5%	-8%	7	-19%
Cc1cc(C)c2cc(C#N)c(N3CCCN(C(=O)c4cnccn4)CC3)nc2c1	?	-11%	·	?
O=C(Nc1cccc(S(=O)(=O)N2CCCC2)c1)c1cc(S(=O)(=O)N2CCOCC2)ccc1F	3.3%	·	·	-11%
Cc1cc(C(=O)N2CCCC(C(=O)c3ccc4ccccc4c3)C2)n(C)n1 (stereo not drawn)	7.0%	0%	0	16%
O=C(NCc1ccccc1)C1(c2cccc(F)c2)CCCC1	0.1%	-5%	-14	27%
COc1ccc(C(=O)c2ccc(Cl)cc2)c(OC)c1OC	-3.5%	·	·	5%
O=C(CN1C2CCCC1CC(NC(=O)c1ccco1)C2)Nc1ccccc1 (stereo not drawn)	2.7%	-1%	1	-11%
CCOC(=O)c1cc(-c2ccccc2)sc1NC(=O)C(C)Sc1nnnn1C (stereo not drawn)	4.2%	-8%	-4	-8%
C[C@@H]1CCC[C@]2(O[C@@H](CCO)C[C@H](O)[C@H]2O)O1	7.6%	·	·	20%
c1ccc2oc(-c3[nH]ncc3CN3CCSCC3)cc2c1	4.7%	2%	5	14%
COCCNC(=O)C1CCN(S(=O)(=O)c2ccccc2)CC1	-3.3%	1%	4	?
O=c1cc(CSc2nnnn2-c2ccc(O)cc2)nc2sccn12	0.0%	1%	0	0%
Cc1c(N=C/C=C2\N(C)c3ccccc3C2(C)C)c(=O)n(-c2ccccc2)n1C	?	-4%	-6	-28%
COc1cccc(NC(=O)CN(C)C(=O)c2cccc(NS(=O)(=O)c3ccc(Br)cc3)c2)c1	0.9%	·	·	-5%
O=C(C1CSC2(c3ccc(F)cc3)CCC(=O)N12)N1CCCCCC1 (stereo not drawn)	2.1%	0%	0	-3%
CC(C)C(=O)Nc1nnc(CCc2ccccc2)s1	-5.1%	-32%	·	-2%
CC1CCCC(C)N1CCCNC(=O)c1nn(C)c2c1CSc1ccccc1-2 (stereo not drawn)	-0.7%	-3%	·	0%
COc1cc(/C=N/n2cnc3c(sc4nc(C)cc(C)c43)c2=O)ccc1O	-1.3%	1%	-1	-5%
